# HPGD inh: blocks human HPGD enzyme activity; purified HPGD, NADH fluorescence kinetic, PGE2 substrate; Potency, µM, for the others: at the highest dose activity change, negative = inhibition, actives largely listed as inhibitors; 4.3% of 150,000 active; active = well fitted inhibition curve with a large enough effect (not every such curve was filed as active); inconclusive = small, poorly fitted or top-dose-only effect, or another doubt; inactive = no such curve, though single readings can be large or run the other way;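 further: top concentration of the series not given in the record; plate controls included wells without enzyme; inactives centre near -10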
# Target sequence (P15428 whole entry, looked up): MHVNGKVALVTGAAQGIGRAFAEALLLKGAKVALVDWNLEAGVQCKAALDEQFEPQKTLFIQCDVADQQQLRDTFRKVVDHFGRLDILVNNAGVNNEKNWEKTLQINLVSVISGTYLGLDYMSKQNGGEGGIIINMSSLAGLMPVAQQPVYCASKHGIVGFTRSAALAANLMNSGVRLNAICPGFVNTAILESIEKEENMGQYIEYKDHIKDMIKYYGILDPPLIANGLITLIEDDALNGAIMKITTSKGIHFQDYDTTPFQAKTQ
#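 20 nM HPGD preincubated 15 min at room temperature with compound in 50 mM Tris-HCl pH 8, 0.01% Tween 20. Started with 1 mM NAD+ and 30 uM prostaglandin E2; NADH fluorescence (360/450 nm) read 5 times over 30-s intervals, last minus first.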
# Numbers without * were called inactive; ? = inconclusive; & = joins results of further samples. On the % scale 0 is the no-effect control and ±100 the full control effect; potency means the concentration at half of the fitted maximal effect. Not all compounds are listed; count on the stated rates, not on these rows.
HPGD inh | Compound
-4.5% | Cc1ccc(NS(=O)(=O)c2ccc3c(c2)oc(=O)n3C)cc1F
-2.8% | CS(=O)(=O)N(CC(=O)N1CCCCCC1)c1ccc2c(c1)OCCO2
-7.4% | Cc1oc(-c2cccs2)[n+]([O-])c1C
-5.8% | COc1ccc(C(=O)NCCC(C)C)cc1S(=O)(=O)N1CCOCC1
-9.2% | COc1ccc(/C(=N/O)C(C)(C)NO)cc1
-2.4% | COc1ccc(CN(C)Cc2ccccc2)c(OC)c1OC
-14.3% | O=C1CN2CCN(CC2)CC(=O)Nc2ccc(cc2)S(=O)(=O)c2ccc(cc2)NC(=O)CN2CCN(CC2)CC(=O)Nc2ccc(cc2)S(=O)(=O)c2ccc(cc2)N1
? | Nc1cccnc1Sc1cccc(Cl)c1
? | COC(=O)Cn1nc(-c2ccccc2)c2ccccc21
1.1% | O=C(O)[C@H](Cc1ccccc1)N1Cc2ccccc2C1=O
? | CC(C)c1ccc(O)c(NC(=O)c2cncc(Br)c2)c1
-7.7% | O=C(CCSc1nnc(-c2ccncc2)o1)Nc1ccccc1Cl
-8.6% | Cc1cc(S(=O)(=O)Nc2ccccc2C(=O)O)ccc1Cl
-10.7% | CCN(CC)CCNC(=O)c1ccccc1C(=O)c1ncc[nH]1
-21.8% | Cc1ccc(C(C)C)c(OCc2ccc(C(=O)N/N=C/c3cccc(O)c3O)cc2)c1
-3.4% | NC(=O)C1CCN(C(c2ccccc2F)c2nnnn2Cc2ccco2)CC1 (configuration not stated)
-3.7% | Cc1noc(C)c1COC(=O)c1ccc2c(c1)OCCO2
-28.9% | CCCN(CCC)C(=O)CSc1nc2n[nH]c(C)c2c(=N)n1-c1ccc(OC)cc1
-18.4% | O=C(Nc1ccc(C(F)(F)F)cc1)c1cc(S(=O)(=O)NCC2COc3ccccc3O2)ccc1F (configuration not stated)
-20.6% | COc1ccccc1NC(=O)COC(=O)c1cnccn1
-7.0% | COc1ccc2c(c1)OC(=O)CC2c1ccccc1C (configuration not stated)
-17.5% | CCOC(=O)c1sc(NC(=O)CSc2ncccn2)c(C#N)c1C
15.8µM* | O=C1C(=O)N(CNc2cccnc2)c2ccccc21
-13.5% | COc1cc(C2c3c(-c4ccccc4)n[nH]c3C(=O)N2c2ccc(C(=O)O)cc2)ccc1O (configuration not stated)
-0.8% | C=CCCCCCCC=C
1.9% | O=C1c2ccccc2C(=O)c2c1cccc2N1CCN(CCO)CC1
15.8µM* | CCCCOc1ccc(CNC(=S)N/N=C/c2ccc(OC)c(OC)c2)cc1
-17.8% | CCc1cc(C(=O)OC)c(NC(=O)CC2NCCNC2=O)s1 (configuration not stated)
-12.2% | CCOc1ccc(-n2c(SC)nc3c(c2=O)SCC3)cc1
-26.2% | CC(C)OC(=O)CC(=O)c1sc2nc3c(cc2c1N)CN(C)CC3
-4.3% | CCSc1nnc(NC(=O)CSc2nnc(Cc3cccn3C)n2CCc2ccccc2)s1
-8.0% | Cc1ccnc(NC(=O)CCC2CCCCC2)c1
28.2µM* | O=c1c2cn[nH]c2[nH]c(=S)n1-c1ccccc1
? | COc1ccc(-c2nc(SC)n(C(=O)c3ccco3)n2)cc1
0.3% | Cc1ccc(S(=O)(=O)NC2=NCN(CCOC(=O)c3ccccc3)CN2)cc1
-12.7% | Cc1cccc(OCc2nnc(SCC(=O)N3CCc4ccccc43)n2C)c1
-6.1% | CN(Cc1ccco1)C(=O)C(Cc1ccccc1)NS(=O)(=O)c1ccc2c(c1)CCC(=O)N2 (configuration not stated)
? | O=C(NCc1ccc2c(c1)OCO2)c1ccc(CSCc2ccccc2Cl)o1
-7.8% | CC(=O)N1Cc2ccccc2C(C)CC12CCCCC2 (configuration not stated)
? | COc1ccc(-c2[nH]ncc2/C=C(/C#N)C(=O)NC2CCCCC2)cc1
-5.3% | Cc1csc(NC(=O)CSc2nnc(-c3ccco3)n2C)n1
-14.4% | CC(=O)Nc1ccc(N2C(=O)CC(N3CC(C)OC(C)C3)C2=O)cc1 (configuration not stated)
-7.1% | O=C(Nc1ccc(Br)cc1)C1CCC(=O)N1Cc1ccccc1Cl (configuration not stated)
-10.0% | CCN(CC)S(=O)(=O)c1ccc2c(c1)nc(CCC(=O)OCC(=O)Nc1c(F)cccc1F)n2C
-22.6% | C=CCn1c(=O)c2ccccc2n2c(SCc3csc(-c4ccccc4)n3)nnc12
-12.4% | Cc1cc(NC(=O)c2ccccc2-c2ccccc2)ccc1Br
2.8% | CC(=O)Nc1ccccc1NS(=O)(=O)c1ccc(Cl)cc1
-0.4% | C[N+](C)(C)CC/C=C1/c2ccccc2CSc2ccccc21
? | c1ccc(-c2nnc(-c3ccco3)o2)cc1
? | Cc1ccc(S(=O)(=O)N(CC(=O)N/N=C/c2cccc3c2OCCO3)c2ccccc2F)cc1

# The list goes on:
HPGD inh | Compound
-13.3% | Cn1c2ccccc2c2cc(C(=O)O)ccc21
-10.6% | CC1(C)CC(=O)c2cc(C(=O)NC3CCSC3=O)c(=O)n(-c3ccc(Cl)cc3)c2C1 (configuration not stated)
-9.1% | COc1ccc(CNC(=O)C2CCN(S(=O)(=O)N3CCOCC3)CC2)cc1
-22.0% | COc1ccc(Cn2c(=O)[nH]c3cc(C(=O)NCCCN4CCCC4=O)ccc3c2=O)cc1
-18.7% | COc1cc(-n2c(=O)c3ccccc3n(Cc3ccccc3)c2=O)cc(OC)c1OC
-18.8% | Cc1ccc(-n2ncc3c(=O)n(CC#N)cnc32)cc1
-9.1% | CN(C)CCNc1ccccn1
-16.6% | O=C(c1ccncc1)N1CCC2(CCCN(c3ncccn3)C2)CC1
? | Cc1cc(Cl)cc(Cl)c1CNc1c([N+](=O)[O-])c(=O)oc2ccccc12
-5.9% | COC(=O)c1sc(S(=O)(=O)N2CCCCC2C(=O)O)c(C(=O)OC)c1C (configuration not stated)
-15.3% | COc1ccc(Cn2c(O)c(C=Nc3ccc(OC)cc3)c3ccccc3c2=O)cc1
-4.1% | Cc1cccc(C)c1NC(=O)CN1N=NC2C(=O)N(c3cccc(Cl)c3)C(=O)C21 (configuration not stated)
? | CCn1c2ccccc2c2cc(C3C(C#N)=C(N)Oc4n[nH]c(COC)c43)ccc21 (configuration not stated)
-1.4% | COc1ccc(CCNC(=O)C2CCCCC2C(=O)O)cc1OC (configuration not stated)
-1.9% | O=C(NC1CCCCC1)C(c1ccco1)N(CCc1ccccc1)C(=O)C(F)(F)F (configuration not stated)
-18.4% | Cc1cc2oc(=O)cc(CN3CCCc4ccccc43)c2cc1C
-1.0% | COc1cc2c(cc1OC)CN(C(=O)c1cc3ccccc3oc1=O)CC2
-11.8% | CCOc1ccc(C(C)=O)cc1CC(C(N)=O)C(N)=O
-6.1% | CC(=O)N[C@H](CS)C(=O)O
-20.7% | COc1cc([N+](=O)[O-])cc(CN2CCCCC2)c1O
-22.5% | CC(C)Sc1cc(N2CCCC2)nc(-c2ccc(F)cc2)n1
-4.7% | CCc1c(C)sc(NC(=O)C2CC2c2ccccc2)c1C(N)=O (configuration not stated)
-12.9% | CCn1c2ccc(C)cc2c2nnc(NN)nc21
-0.2% | CCCn1nnnc1NC(=O)c1cccs1
-22.8% | COC(=O)/C(C(C)=O)=C(/C=C/C=C/N(C)C)N(C)C
-12.3% | Cc1ccc(C)c2[nH]c(=O)c(CN(CCN3CCCC3)C(=O)Nc3cccc(Cl)c3)cc12
-1.5% | O=C(CN(c1ccc(F)cc1)S(=O)(=O)c1ccc2c(c1)OCCO2)NCc1cccnc1
-12.7% | Cn1c(=O)c(Sc2ccc(Cl)cc2)c(O)c2ccccc21
25.1µM* | COc1ccc(CNC(=O)c2cnc(C)cn2)cc1
? | COc1ccc2[nH]c(=O)c(CN(Cc3ccccc3)Cc3nnnn3CC3CCCO3)cc2c1 (configuration not stated)
-13.7% | Cn1cnnc1SC1c2cccc3cccc(c23)C1NS(=O)(=O)c1ccccc1 (configuration not stated)
-12.5% | O=C(C1CCC1)N1CCc2cc(S(=O)(=O)N3CCCCC3)ccc21
-9.2%&-4.8% | COc1ccc(C(O)C2=CCCC2=O)cc1 (configuration not stated)
-1.7% | Cc1ccc(-n2nnnc2SCC(=O)Nc2c(C)n(C)n(-c3ccccc3)c2=O)cc1
-11.6% | O=C(C(Cl)Cl)N1c2ccccc2OCC1c1ccccc1 (configuration not stated)
-0.3% | C=CCn1c(Cc2csc(N)n2)nnc1SCC(=O)Nc1ccc(C(=O)OCC)cc1
-13.5% | Cc1ccc2[nH]cc(C(=O)CCl)c2c1
? | CCc1ccc2c(c1)C(C)=CC(C)(C)N2
-27.7% | Cc1sc(-c2ccncc2)nc1OC(=O)c1ccccc1
? | COc1ccc(C2C3=C(CCCC3=O)Nc3nc(SCc4ccc(C(=O)O)cc4)nn32)cc1OC (configuration not stated)
? | CCCn1c(O)c(CN2CCCC(C)C2)c(C)c(C#N)c1=O (configuration not stated)
-25.1% | O=C(Nc1nnc(-c2ccco2)s1)c1ccccc1
-18.7% | CCOC(=O)c1c(NC(=O)CSc2nnc(-c3cccnc3)o2)sc2c1CCC2
-16.9% | O=C(NCCN1CCN(c2ccccc2)CC1)C1(S(=O)(=O)c2ccc(Cl)cc2)CC1
-10.7% | O=C1NC(=Nc2ccccc2)c2ccc([N+](=O)[O-])cc21
-13.6% | O=C(c1ccncc1)N1CCC2(CC1)CCN(c1cccc(-c3ccccc3)c1)CC2
-15.2% | Cc1c(Br)c(=O)oc2c(C)c(O)ccc12
-0.2% | CCn1c(SCC(=O)Nc2cccc(C(C)=O)c2)nnc1C(C)C
-2.7% | CCOC(=O)N1CCC(NCCNC(=O)c2cccs2)CC1
-1.7% | COCCN(Cc1ccccc1)C(=S)Nc1ccc(OC(F)F)cc1

# Carrying on:
HPGD inh | Compound
0.3% | Cc1[nH]nc2c1C(c1ccoc1)C(C#N)=C(N)O2 (configuration not stated)
-5.4% | Cc1ccc(-c2nnn(CC(=O)Nc3ccccc3N3CCOCC3)n2)cc1
-9.0% | N#CCC1c2ccccc2CCN1C(=O)Nc1cccc(Cl)c1 (configuration not stated)
? | COc1cccc(/C=N/n2nnc3c(cnn3-c3ccccc3)c2=O)c1
-4.5% | CC(=O)c1ccc(NC(=O)CN2CCN(c3ncccn3)CC2)cc1
-2.8% | CCN1C(=O)C2C(C1=O)N1C(c3cccs3)C3C(=O)N(CC)C(=O)C3N1C2c1cccs1 (configuration not stated)
-10.8% | Cn1c(N/N=C/c2cccs2)cc(=O)n(C)c1=O
-8.3% | Cc1ccc(S(=O)(=O)N=Nc2c(O)[nH]c3cc(O)c(C(=O)O)cc23)cc1
-5.1% | Cc1cc(NC(=O)CCC(=O)N(Cc2ccco2)C(C(=O)NC2CCCC2)c2ccccc2C)no1 (configuration not stated)
-6.2% | CCN1CCN(C(=O)CCc2nc3ccccc3n2-c2ccccc2)CC1
-5.4% | COc1ccc(C(=O)NC(C)c2cc(OC)c(OC)cc2Br)cc1 (configuration not stated)
-5.3% | CCCCC1=CC2=C(c3ccco3)C(=O)C(C)(OC(=O)c3ccc(OC)cc3)C(=O)C2=CN1CCCOC(C)C (configuration not stated)
4.0% | COc1cccc(NS(=O)(=O)c2ccc3c(c2)CCCN3C(C)=O)c1
-13.1% | CN(C(=O)CSc1nc(C2CC2)nc2ccccc12)c1nc(-c2ccccc2)cs1
? | O=C(CSc1ccccc1Cl)NC1CCCc2ccccc21 (configuration not stated)
-21.6% | COc1cccc(/C=N/NC(=O)CC(=O)NCCc2ccc(OC)c(OC)c2)c1
-17.2% | COc1cccc(-c2cc(C(F)(F)F)c3c(N)c(C#N)sc3n2)c1
-6.1% | Cc1ccc(NC(=O)C2CCCN2S(=O)(=O)c2ccc3c(c2)CCC(=O)N3)cc1Cl (configuration not stated)
3.2% | CC(=O)c1c(C)n(C)c2ccc(O)cc12
4.6% | CC(=O)NC(CC(=O)Nc1cccc(S(=O)(=O)N2CCCCC2)c1)c1ccccc1 (configuration not stated)
-9.1% | COc1cccc(NC(=O)Nc2ccc3c(c2)N(C)C(=O)CS3)c1
2.0% | COc1ccc(OCCSc2nnc(-c3cccnc3)n2N)cc1
-10.2% | COc1ccc(NC(=O)Cn2c(=O)sc3ccccc32)cc1
7.3% | CCOC(=O)CSc1nnc(CNC(=O)c2ccc(OC)cc2)n1C1CCCCC1
-6.7% | CCC(=O)Nc1ccc(S(=O)(=O)Nc2cccc(C)c2)cc1OC
-21.5% | COc1ccc(/C(O)=C2\C(=O)C(=O)N(CCN(C)C)C2c2cc(OC)c(OC)c(OC)c2)c(C)c1 (configuration not stated)
? | Fc1cccc(-n2c(-c3ccco3)nc3nc4ccccc4nc32)c1
-7.9% | COc1ccc(CCNC(=O)CSc2nc(O)c(C(C)C)c(=O)[nH]2)cc1OC
2.8% | O=C(Nc1ccccc1C(=O)NCC1CCCO1)c1ccc(Cl)cc1Cl (configuration not stated)
-11.8% | COc1cc2c(cc1OC)C(COc1ccc(F)cc1)N(C(=O)c1ccco1)CC2 (configuration not stated)
